Source: PubChem (several laboratories)
Vif A3G = HIV-1 Vif–A3G interaction blockers – biochemical, TR-FRET, GST-Vif 1-94, biotin-A3G peptide, dose response retest, primary screen (AID 1117319). TR-FRET GST-Vif / biotin-A3G peptide binding; higher % means a stronger effect; test concentration not given here; strong numbers were not always called active. inhibition, %; hits with a dose series show IC50 in µM. 0.57% of 260,000 active;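 active = above the screen mean plus three standard deviations and confirmed in dose response; inconclusive = results disagree or hit not tested in dose response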;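 also: Vif residues 1-94 fused to GST binding biotinylated APOBEC3G peptide 110-148; 0% = full assay without inhibitor and 100% = GST in place of GST-Vif; retest series ran down from 100 µM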
LANA-H2A inh = blocks KSHV LANA binding to histone H2A/H2B. cell-free LANA-H2A/H2B peptide, fluorescence polarization. Q9QR71. inhibition, % (test concentration not listed). 0.6% of 320,000 active; in the data active = inhibition mostly above about 10%, no sharp cut-off; inactive = mostly below about 6.7%;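 also: stock transfer was 7.5 nL into about 10 µL; 0% = median of vehicle wells and 100% = median of positive control wells; one replicate is shown; the record names a cut of 25% in any replicate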
E coli growth = blocks Escherichia coli growth; OD600 absorbance (test concentration not listed); 0.21% of 330,000 active; OD600, 23 h; hits give low values;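 active = OD600 absorbance below the run mean of sample wells minus 3.6 SD, in any replicate, cut at about 0.56 in these data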;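 also: stock transfer was 300 nL into about 60 µL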
UCH37 inh = inhibitors of human deubiquitinating enzyme UCH37; Q9Y5K5; purified proteasome/UCH37, Ub-AMC cleavage fluorescence; inhibition, % (no concentration beside the values); 0.33% of 330,000 active;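 active = mean of two replicates above 20%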;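 also: 0% = compound-free wells with enzyme and 100% = wells lacking proteasome; stock transfer was 100 nL into about 20 µL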
Target sequence (Q9Y5K5 whole entry, looked up): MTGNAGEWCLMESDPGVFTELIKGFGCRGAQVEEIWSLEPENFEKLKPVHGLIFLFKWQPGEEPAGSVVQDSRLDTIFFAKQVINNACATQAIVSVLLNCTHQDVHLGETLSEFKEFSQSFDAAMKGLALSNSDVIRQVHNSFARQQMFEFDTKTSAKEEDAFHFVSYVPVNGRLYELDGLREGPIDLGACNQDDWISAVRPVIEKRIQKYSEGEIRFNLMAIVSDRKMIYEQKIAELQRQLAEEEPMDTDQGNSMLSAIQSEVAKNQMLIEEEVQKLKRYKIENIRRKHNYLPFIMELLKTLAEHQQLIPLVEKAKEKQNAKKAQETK
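Schedule: 30 min plus 25 min, room temperature / Material: human UCH37 within purified proteasomes / Technique: AMC fluorescence intensity at 355/460 nm / Buffer or medium: pH 7.4 Tris-HCl (50 mM) with ovalbumin, ATP-MgCl2, DTT / Controls: wells without proteasome as full block, compound-free enzyme plus substrate as uninhibited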
B2AR ag = activates human beta-2 adrenergic receptor causing internalization | P07550 | Am2.2-beta2AR cells, FAP receptor internalization, flow cytometry; reference of the scale not given here | response, % (concentration not given with the values) | 0.43% of 340,000 active | AID 504454;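 active = response above a set limit, near 3 SD of response in nonfluorescent compounds, cut at about 42% in these data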;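 also: stock transfer was 100 nL into about 11 µL; a reference agonist was the positive control; negative values mostly stem from fluorescent compounds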
HNF4A DNA FP = change in binding of human HNF4 alpha to DNA; 0.3% of 360,000 active; activity change, % at 10 µM; HNF4a-FITC DNA binding, fluorescence polarization, 1 h; P41235; in the data active = activity change above about 30%, passing the limit was not always enough;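 also: controls were the assay level and a saturating level of protein; the project sought stronger binding though the title names inhibitors; some compounds called inactive have numbers as strong as hits; positive values seem to mean higher polarization but the record does not say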
Target sequence (P41235 whole entry, looked up): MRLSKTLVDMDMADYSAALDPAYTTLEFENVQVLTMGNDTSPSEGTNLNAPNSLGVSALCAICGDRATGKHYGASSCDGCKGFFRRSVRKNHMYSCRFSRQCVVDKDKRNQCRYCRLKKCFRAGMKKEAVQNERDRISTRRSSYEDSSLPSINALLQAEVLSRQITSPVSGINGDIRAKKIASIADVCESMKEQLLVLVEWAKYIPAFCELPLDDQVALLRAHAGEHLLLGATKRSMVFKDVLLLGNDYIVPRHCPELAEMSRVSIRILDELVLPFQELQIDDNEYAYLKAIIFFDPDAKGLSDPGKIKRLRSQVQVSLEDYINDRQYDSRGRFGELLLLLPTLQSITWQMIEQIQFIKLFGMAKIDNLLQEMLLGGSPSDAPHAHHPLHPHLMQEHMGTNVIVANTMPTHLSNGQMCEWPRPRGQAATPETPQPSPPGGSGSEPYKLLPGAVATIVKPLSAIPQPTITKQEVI
A1 inh = inhibitors of the anti-apoptotic protein A1, read as caspase activation; 0.066% of 330,000 active; AID 2462; MEF A1-2A-BIM cells, Caspase-Glo 3/7 luminescence, 3 h; percent of clofoctol response, vehicle zero; caspase activation, % (no concentration beside the values);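 active = over half of replicate activation scores above 10%, or exactly half above 10 with the replicate mean above 10; inconclusive = replicate mean below 10 yet half the replicates above 10; inactive = over half of replicates below 10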;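 also: wells of about 30 µL received 50 nL stock; many hits fall short of the cut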
Starred values were filed as active, the others as inactive; ? = inconclusive; . = no result given; & = joins results of further samples. Not a hit list; overall some 2.1% were active at least once.

SMILES	Vif A3G	LANA-H2A inh	E coli growth	UCH37 inh	B2AR ag	HNF4A DNA FP	A1 inh
Fc1ccc(C2c3cccn3CCN2C(=S)Nc2cccc(Br)c2)cc1 (stereo unspecified)	.	2.3	0.68	4.3	4	2.5	1.4
O=C(N/N=C\C=C\c1ccc(Br)cc1)c1ccc2c(c1)OCO2	.	2.8	.	.	4	50*	-0.8
O=C(NCc1ccco1)C1CCN(S(=O)(=O)c2ccc(-n3cnnn3)cc2)CC1	0%	-1.5	0.7	0.0	6	-1.8	0.0
CCCc1nc(SCC(=O)N2CCC(Cc3ccccc3)CC2)c2c(=O)n(C)c(=O)n(C)c2n1	-1%	-0.2	0.8	2.2	32	-3.2	-1.4
Cc1ccc(Nc2nc(N)nc(CCl)n2)c(C)c1	6%	-0.2	0.69	1.1	18	-1.4	2.0
CC1Oc2ccccc2N(CC(=O)NC2CCCCC2)C1=O (stereo unspecified)	.	-3.5	0.69	-0.1	1	0.2	-2.4
Cc1ccccc1NC(=O)C12CC3CCC1(C)C3(C)CO2 (stereo unspecified)	-7%	1.3	0.72	1.7	4	-2.2	-0.9
CC1=C(C(=O)Nc2ccc(C)cc2)C(c2ccc(C)o2)C2=C(CC(C)(C)CC2=O)N1 (stereo unspecified)	8%	-4.6	0.71	-13	-1	2.9	-0.5
Cc1ccc(C)c(NC2=CC(=O)CC(C)(C)C2)c1C#N	?	5.6	0.73	6.4	-5	-1.8	-0.2
Cc1cc(S(=O)(=O)N2CCCC(C)C2)ccc1-n1cnnn1 (stereo unspecified)	.	4.4	0.71	1.2	-8	1.4	0.5
Cc1cc(C)n(-c2cccc(Cl)c2C#N)n1	-10%	-5.2	0.69	-47	20	5.6	-0.7
Cn1c(=O)c(=O)n(C)c2cc(S(=O)(=O)NCc3ccc(Cl)cc3)ccc21	-39%	-0.8	0.66	-10	-7	-8.2	0.8
CCCCNC(=O)N1CCN(c2ccccc2OCC)CC1	?	1.1	0.66	-1.4	8	6.2	-0.6
O=C(CCNS(=O)(=O)c1ccccc1)NCCCSc1ccccc1	-1%	-0.9	0.69	-1.9	0	2.9	0.0
CC(=O)NC12CC3CC(C1)CC(C(=O)Nc1cccc(S(=O)(=O)N4CCCCCC4)c1)(C3)C2	.	.	0.72	-1.6	6	0.8	.
O=[N+]([O-])c1ccc(Oc2ccc(S(=O)(=O)N3CCOCC3)cn2)cc1	-2%	1.8	0.65	4.2	2	0.9	1.5
CC(C)CC(=O)Nc1ccc2oc(-c3cccnc3)nc2c1	-3%	15	0.65	-195	-7	-6.3	-0.8
CN1CCC(=O)N([C@H](COc2ccccc2)Cc2ccccc2)CC1	.	7.1	.	-0.9	-2	-1.5	0.5
Oc1ccccc1N=Nc1nc(-c2ccccc2)c(-c2ccccc2)[nH]1	7%	-4.9	.	.	13	23	-0.6
COc1ccc(-c2onc3ccc(C(=O)/C=C/N(C)C)cc23)cc1	.	-0.8	0.7	8.9	12	-4.0	1.2
Cc1nn(-c2ccccc2)c(C)c1/C=N\NS(=O)(=O)c1ccc(Cl)cc1	7%	4.7	.	.	2	2.1	1.0
O=C(CC1C(=O)NCCN1Cc1ccccc1C(F)(F)F)NCCN1CCOCC1 (stereo unspecified)	-1%	0.8	0.66	-1.0	-11	-0.7	-1.1
CC(C)(C)CNC(=O)c1cccc2c1C(=O)c1ccc(-c3cc4ccccc4o3)cc1S2(=O)=O	.	7.3	0.77	-0.2	16	9.0	-0.5
NC(=O)CSc1c[nH]c2ccccc12	17%	4.1	0.67	-1.8	1	-1.3	0.8
Cc1cc(NC(=O)C2CC(=O)N(c3cccc(Cl)c3)C2)no1 (stereo unspecified)	.	11*	0.67	6.5	-9	-1.1	0.4
CCCN(CC(=O)Nc1ccccc1OC)C(=O)CNC(=O)c1ccc(C)s1	5%	.	0.67	0.2	2	4.0	.
Cc1cccc(N2CN(Cc3cccnc3)CNC2=S)c1C	-3%	-1.4	0.69	2.6	6	0.7	-0.2
C/C(CC(O)(/C=N/O)c1ccccc1)=N\O (stereo unspecified)	9%	2.3	.	.	-4	1.9	0.5
O=C(N/N=C/c1ccoc1)c1ccccc1	.	2.7	.	.	-14	-5.0	-1.7
CC(C)CNC(=O)c1ccccc1NC(=O)c1ccc(CN2CCOCC2)cc1	-2%	1.9	0.67	0.2	-13	1.5	0.3
O=S(=O)(c1ccc(Cl)cc1)N1CCC(O)(CN2CCN(Cc3ccccc3)CC2)CC1	0%	5.7	0.7	3.9	-2	3.1	-0.3
O=C(c1cccs1)N1CCN(Cc2nc3ccccc3c(=O)[nH]2)CC1	?	5.3	0.71	-0.7	3	3.1	1.5
O=c1cc(CNC2CCCCC2)c2ccccc2[nH]1	10%	2.0	0.71	3.5	-4	0.1	-0.2
O=c1c2ccccc2cnn1Cc1n[nH]c(=S)n1-c1ccc(F)c(Cl)c1	-2%	0.6	0.69	0.6	-6	0.9	0.1
COC12NC(=O)N(C)C1(OC)C(=O)N(C)C(=O)N2C (stereo unspecified)	.	2.9	0.68	2.6	2	3.1	-0.5
Cc1sc2nc(SCC(=O)NCCO)n(C)c(=O)c2c1C	2%	-2.1	0.7	7.1	-4	3.6	1.9
NC(=O)C1(N2CCCCC2)CCN(C(=O)CSc2nc3ccccc3[nH]2)CC1	-1%&3%	0.1	0.66	1.5	-3	-1.5	-0.2
COc1ccc(N2CCN(CC(=O)NC(=O)NCc3ccccc3)CC2)cc1	-2%	-9.1	0.66	1.6	-2	-2.6	0.5
COc1ccc(-c2cc(C(=O)N3CCN(c4ccccc4O)CC3)c3ccccc3n2)cc1	2%	-8.9	0.67	-35	10	0.2	-1.0
COc1ccc(S(=O)(=O)N2CCN(c3ccccc3OC)CC2)cc1OC	3%	0.2	0.74	5.2	1	-1.8	0.7
COc1ccc(C(=O)N/N=C\c2coc3ccc(C)cc3c2=O)cc1	.	3.8	.	.	7	4.0	0.1
O=C(NC(=S)NCCC1=CCCCC1)c1ccco1	3%	-0.4	0.7	-0.1	-15	2.3	-0.6
C/C(O)=C\c1nc(=O)c2c(C)cc(C)nc2n1-c1ccccc1	-8%	-1.3	0.66	-11	-2	1.6	-0.6
O=S1(=O)c2c(F)cccc2O[C@@H](COCc2ccccc2)CN1CCc1ccc(F)cc1	-3%	.	.	.	-3	1.5	.
CC1CCCCN1Cc1c(O)ccc2c(=O)c(-c3ccc(Br)cc3)coc12 (stereo unspecified)	1%	.	0.62	-376	12	-0.2	.
COC(=O)c1ccc(NC(=O)C2CCCN(S(C)(=O)=O)C2)cc1 (stereo unspecified)	10%	-1.9	0.64	1.2	-4	4.8	-0.5
CC(NC(=O)c1cc(COc2c(F)cccc2F)on1)c1cnn(-c2ccccc2)c1 (stereo unspecified)	.	47*	.	.	-19	1.5	0.2
CN(C)c1nc(Cl)nc(NCCOc2ccccc2)n1	-4%	-2.9	0.72	2.9	-1	2.3	0.4

Record cards (already shown). Screens in order: Vif A3G | LANA-H2A inh | E coli growth | UCH37 inh | B2AR ag | HNF4A DNA FP | A1 inh
CCCCNC(=O)N1CCN(c2ccccc2OCC)CC1 is listed as ? | 1.1 | 0.66 | -1.4 | 8 | 6.2 | -0.6
Oc1ccccc1N=Nc1nc(-c2ccccc2)c(-c2ccccc2)[nH]1 is listed as 7% | -4.9 | . | . | 13 | 23 | -0.6
CC1=C(C(=O)Nc2ccc(C)cc2)C(c2ccc(C)o2)C2=C(CC(C)(C)CC2=O)N1 (stereo unspecified) is listed as 8% | -4.6 | 0.71 | -13 | -1 | 2.9 | -0.5
Cc1cccc(N2CN(Cc3cccnc3)CNC2=S)c1C is listed as -3% | -1.4 | 0.69 | 2.6 | 6 | 0.7 | -0.2

Next part
SMILES	Vif A3G	LANA-H2A inh	E coli growth	UCH37 inh	B2AR ag	HNF4A DNA FP	A1 inh
CN(CC(=O)Nc1ccc(OC(F)(F)F)cc1)C(=O)Cn1c(=O)cnc2ccccc21	-13%	1.6	0.69	2.5	0	-3.0	0.2
CCS(=O)(=O)c1nc(S(=O)(=O)c2ccc(Cl)cc2)c(N2CCCC2)s1	.	1.0	0.69	2.2	-23	1.4	-1.0
OCCCNCc1ccc(N(c2ccccc2)c2ccccc2)cc1	.	-1.2	0.62	-0.8	10	-0.4	0.6
CC1(C)CC2CC(C)(CN2C(=O)C23CCC(C)(C(=O)O2)C3(C)C)C1 (stereo unspecified)	25%	-1.2	0.64	4.4	16	1.6	1.0
COc1ccc(N2CCN(C(=O)C3(C)CC3(Cl)Cl)CC2)cc1 (stereo unspecified)	4%	1.8	0.66	0.4	-8	1.1	1.7
CC(C)CCN1C(=O)CC(NNC(=O)c2ccc(S(=O)(=O)N3CCCC3)cc2)C1=O (stereo unspecified)	-13%	-2.2	0.66	6.9	2	-6.6	2.3
COc1ccc2[nH]c3c(c2c1)CCN1C(=O)C(CC(=O)NCCCn2ccnc2)C[C@H](C(=O)N2CCCCC2)[C@@]31C (stereo partly specified)	1%	.	0.7	-0.7	4	0.7	.
CC1(C)CC[C@@]2(C(=O)O)C(C1)C1=CCC3[C@@]4(C)CC[C@H](O)C(C)(C)C4CC[C@@]3(C)[C@]1(C)C[C@H]2O (stereo partly specified)	.	3.0	.	0.8	.	.	-1.9
O=C(Nc1cc(Cl)ccc1N1CCOCC1)c1cnccn1	-4%	1.7	0.68	5.2	-8	-2.4	-0.9
O=C(CCN1CCOCC1)NC1CCCN(Cc2ccccc2F)C1 (stereo unspecified)	.	-4.2	0.73	0.9	-2	0.4	0.8
CCOc1ccc(NC(=O)c2ccco2)cc1S(=O)(=O)N1CCCC1	-6%	-0.2	0.65	0.8	-7	-1.1	-0.4
CCOc1ccc(C(=O)NCC(=O)N2CCC3CCCCC3C2)cc1OCC (stereo unspecified)	.	2.8	0.69	1.5	-2	4.0	1.2
CCOC(=O)c1c(NC(=O)Cc2cccs2)sc(C(=O)N2CCCCC2)c1C	-1%	4.8	0.68	5.4	-8	-2.1	-0.5
CN(C(=O)CC1C(=O)NCCN1Cc1cccc(F)c1F)C1CCOCC1 (stereo unspecified)	-4%	1.4	0.7	-25	7	4.7	-0.5
CCCCC(CC)C1OCC(CN2CCCCC2)O1 (stereo unspecified)	-7%	-1.3	0.63	1.6	-2	-0.2	0.8
CCN1C[C@@H]2[C@@H]3C(=O)N(C)C(=O)[C@@H]3[C@](C)(C1=O)N2C(=O)c1ccc(C(C)(C)C)cc1	.	.	.	4.3	-1	0.4	.
CCc1ccc2[nH]c(O)c(N=NC3=NC(=O)CS3)c2c1	5%	-7.8	0.7	9.4	5	-0.8	0.2
Cc1ccc(C(=O)NC(C(=O)NC2CCCC2)c2ccccc2)cc1 (stereo unspecified)	.	4.7	0.69	0.2	4	-2.8	-0.6
CN(C)CCCN(C(=O)CCS(=O)(=O)c1ccccc1)c1nc2cc3c(cc2s1)OCO3	2%	-0.8	0.71	3.7	19	3.3	1.6
C=CCOc1ccc(C(=O)NC2CCCCC2)cc1	-4%	-0.9	0.7	6.7	-1	1.2	-6.5
COCCSc1ccccc1C(=O)Nc1ccc(Br)cc1	9%	0.2	0.62	0.2	4	-3.7	-0.7
COCCCN(C)C1CCN(C(=O)Nc2ccc(F)cc2)CC1	-5%	-1.5	0.63	0.4	-2	-3.9	0.5
CCOc1cc2c(cc1OC)C(NC(=O)c1ccco1)CC2=O (stereo unspecified)	-7%	-0.1	0.7	-1.2	-2	-2.6	-0.5
CC(C)c1ccc(NC(=O)[C@H](Cc2c[nH]c3ccccc23)NC(=O)[C@@H]2Cc3ccccc3CN2)cc1	.	-0.6	0.66	-3.2	4	8.5	0.2
NC(=O)C1CCN(C(=O)CCSc2ccc(Cl)cc2)CC1	4%	-2.1	0.68	0.3	3	1.8	1.4
